Ecoli rRNA inh: selective bacterial rRNA inhibition in E. coli; E. coli WT GFP vs humanized-ribosome RFP mutants, fluorescence, 24 h; stronger effect = lower value; DMSO median 0, no signal -100; GFP signal change (wild-type ribosome), % (concentration not given with the values); 1.6% of 350,000 active;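 active = significant combined selectivity score with lowered wild-type GFP, culture density cut under 30%, mutant RFP and density less affected; inactive = any of these conditions unmet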; also: one replicate is shown; some compounds called inactive have numbers as strong as hits
FGF22 binding: shifts melting point of recombinant human FGF22 | recombinant FGF22 thermal shift, SYPRO orange fluorescence; percent of sucrose octasulfate shift, DMSO zero | calls only at 9.99 µM | 1.5% of 340,000 active | AID 651658;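 active = melting point raised past a set limit in the mean and every replicate; inconclusive = no clear call; three in four hits are not shown here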
Target sequence (Q9HCT0 whole entry, looked up): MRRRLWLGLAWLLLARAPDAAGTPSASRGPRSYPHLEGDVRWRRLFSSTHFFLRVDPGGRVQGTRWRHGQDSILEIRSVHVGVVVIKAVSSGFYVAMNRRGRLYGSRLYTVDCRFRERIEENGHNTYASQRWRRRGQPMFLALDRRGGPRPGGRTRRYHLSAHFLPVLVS
ALR inh: blocks human ALR sulfhydryl oxidase activity | P55789 | purified ALR, DTT oxidation, H2O2 HRP-luminol luminescence | inhibition, % (test concentration not listed) | 3.8% of 290,000 active | AID 485317;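 active = mean and each replicate at 75% or more; inconclusive = only one of the two met; inactive = neither met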;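 also: stock transfer was 7.5 nL into about 7.5 µL; 0% = neutral wells and 100% = wells with inactivated enzyme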
Target sequence (P55789 whole entry, looked up): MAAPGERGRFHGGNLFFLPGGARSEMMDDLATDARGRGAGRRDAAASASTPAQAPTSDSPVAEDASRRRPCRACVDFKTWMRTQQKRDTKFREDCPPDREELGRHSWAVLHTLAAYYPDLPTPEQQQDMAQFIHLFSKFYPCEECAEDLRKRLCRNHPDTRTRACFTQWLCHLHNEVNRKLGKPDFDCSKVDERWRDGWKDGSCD
Vif A3G: inhibitors of Vif binding to APOBEC3G peptide, primary screen, biochemical, TR-FRET, GST-Vif 1-94, biotin-A3G peptide, dose response retest (AID 1117319). TR-FRET GST-Vif / biotin-A3G peptide binding; higher % means a stronger effect; test concentration not given here; strong numbers were not always called active. 0.57% of 260,000 active. one-dose inhibition, %; IC50 in µM for titrated hits;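 active = above the screen mean plus three standard deviations and confirmed in dose response; inconclusive = results disagree or hit not tested in dose response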;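 also: Vif residues 1-94 fused to GST binding biotinylated APOBEC3G peptide 110-148; 0% = full assay without inhibitor and 100% = GST in place of GST-Vif; retest series ran down from 100 µM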
HNF4A DNA FP: change in binding of human HNF4 alpha to DNA; activity change, % at 10 µM; P41235; AID 1224865; 0.3% of 360,000 active; HNF4a-FITC DNA binding, fluorescence polarization, 1 h; in the data active = activity change above about 30%, passing the limit was not always enough;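 also: controls were the assay level and a saturating level of protein; the project sought stronger binding though the title names inhibitors; some compounds called inactive have numbers as strong as hits; positive values seem to mean higher polarization but the record does not say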
Target sequence (P41235 whole entry, looked up): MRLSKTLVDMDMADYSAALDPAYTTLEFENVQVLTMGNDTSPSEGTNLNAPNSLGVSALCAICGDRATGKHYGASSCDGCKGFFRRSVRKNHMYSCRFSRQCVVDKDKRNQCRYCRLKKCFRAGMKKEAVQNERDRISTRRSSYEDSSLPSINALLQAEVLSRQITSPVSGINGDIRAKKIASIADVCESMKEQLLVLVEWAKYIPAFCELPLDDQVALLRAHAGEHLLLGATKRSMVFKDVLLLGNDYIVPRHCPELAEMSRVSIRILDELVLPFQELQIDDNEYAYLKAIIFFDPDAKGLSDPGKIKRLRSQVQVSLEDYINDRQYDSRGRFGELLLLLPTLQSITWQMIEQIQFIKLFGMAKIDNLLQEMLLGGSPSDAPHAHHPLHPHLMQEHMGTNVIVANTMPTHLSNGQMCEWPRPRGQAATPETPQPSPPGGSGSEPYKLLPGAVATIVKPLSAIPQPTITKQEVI
Ecoli growth: blocks Escherichia coli growth. 0.21% of 330,000 active. AID 1053175. OD600 absorbance (test concentration not listed). OD600, 23 h; stronger effect = lower value;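 active = OD600 absorbance below the run mean of sample wells minus 3.6 SD, in any replicate, cut at about 0.56 in these data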;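 also: stock transfer was 300 nL into about 60 µL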
AF4-AF9 inh: inhibitors of human MLL-AF4/AF9 interaction. P42568. AlphaScreen, biotin-AF4 peptide binding to FLAG-AF9. inhibition, % at 10 µM. 0.47% of 350,000 active. AID 651704;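 active = every replicate reaching a set inhibition limit, whatever the replicate mean, cut at about 25% in these data; inconclusive = mean inhibition reaches that limit but some replicates miss it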;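 also: 0% = plate neutral control median and 100% = total signal loss; the record names both 10 and 1 µM as test concentration; the first replicate is given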
Ecoli rRNA inh OD600: recorded beside Ecoli rRNA inh, whose call it bears; OD600 change, %; measured here: OD600 growth;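 optical density of the mix in the first replicate; 0 = DMSO median and -100 = no signal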
Ecoli rRNA inh RFP: second read-out of Ecoli rRNA inh, no call of its own (marks repeat the call); RFP signal change, %; measured here: RFP humanized mutant strains;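 first replicate; 0 = DMSO median and -100 = no signal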
* marks the source's active call; other numbers are inactive results; i = inactive; u = inconclusive; x = not tested or not shown. The list is partial (hit frequency here may not be typical).

Every second line gives: Ecoli rRNA inh	Ecoli rRNA inh OD600	Ecoli rRNA inh RFP	FGF22 binding	ALR inh	Vif A3G	HNF4A DNA FP	Ecoli growth	AF4-AF9 inh
(1) CC12CCC(C(=O)N(c3ccc(Cl)cc3)C1=O)C2(C)C (stereo not drawn)
    x	x	x	i	x	-1%	3.1	0.66	2.5
(2) CCc1ccc(NC(=O)C(=O)N/N=C(\C)CC(=O)Nc2ccc(OC)cc2)cc1
    9	10	-1.5	i	-2	-13%	0.4	x	-0.1
(3) CCOC(=O)c1sc2nc(C)cc(C)c2c1NC(=O)c1ccco1
    x	x	x	x	-23	-1%	-1.6	0.69	x
(4) O=C(C[C@@H]1C[C@H]2c3cc(NC(=O)NC4CCCCC4)ccc3O[C@H]2[C@H](CO)O1)NCc1ccccc1
    -5	-9	4.3	i	x	x	x	x	-0.8
(5) Cc1n[nH]c(=O)nc1NCc1ccccc1Cl
    x	x	x	x	37	u	2.2	0.7	x
(6) CC(=O)C(Sc1ccc2nnc(-c3ccc(F)cc3)n2n1)C(C)=O
    -6	-7	4.1	i	4	-1%	3.3	0.72	-8.8
(7) COc1ccc([N+](=O)[O-])cc1N(CC(=O)NCCSc1ccccc1)S(C)(=O)=O
    11	2	-2.8	x	-5	x	-1.7	0.64	-0.5
(8) O=C1CC(Sc2cccs2)C(=O)N1c1ccccc1 (stereo not drawn)
    -5	-13	-0.9	i	x	-4%	-7.2	0.67	-1.3
(9) C[C@H]1CN([C@@H](C)CO)C(=O)c2cccc(NC(=O)c3ccncc3)c2O[C@@H]1CN(C)S(=O)(=O)c1cccs1
    -2	5	-2.1	i	x	x	x	x	-0.3
(10) Cc1ccc(Cl)cc1N1CCN(C(c2ccc(C#N)cc2)c2nnnn2C2CCCC2)CC1 (stereo not drawn)
    x	x	x	x	-4	-1%	-0.7	0.7	x
(11) c1cncc(CNc2ncn[nH]2)c1
    -18	-18	-9.9	i	-3	8%	-1.2	0.74	-5.9
(12) C[C@H](CO)N1C[C@H](C)[C@H](CN(C)C(=O)CN(C)C)Oc2ncc(C3=CCCC3)cc2C1=O
    8	14	-0.1	i	x	x	x	x	0.4
(13) Cc1cc(/C=C(\C#N)C(=O)O)c(C)n1CC(C)C
    10	7	-0.2	i	x	10%	7.4	0.73	1.7
(14) O=C(Nc1ccc2c(c1)OCCO2)C1CCN(C(=O)c2ccccc2)CC1
    x	x	x	x	-3	-2%	-0.9	0.72	x
(15) Cc1ccccc1S(=O)(=O)N1C[C@@H](O)COC[C@@H]2O[C@H](CC(=O)NCc3ccccc3Cl)CC[C@H]21
    -2	-2	5.0	i	x	x	x	x	1.4

(cont.)
Every second line gives: Ecoli rRNA inh	Ecoli rRNA inh OD600	Ecoli rRNA inh RFP	FGF22 binding	ALR inh	Vif A3G	HNF4A DNA FP	Ecoli growth	AF4-AF9 inh
(16) CCOC(=O)C1=C(COC(=O)c2ccc3ccccc3c2O)NC(=O)NC1C (stereo not drawn)
    5	-22	11	i	-15	20%	-23	0.7	1.4
(17) CCOc1ccc(-c2c(=O)n(OCc3ccccn3)c3ccccc3[n+]2[O-])cc1
    x	x	x	x	-11	28%	3.0	0.68	x
(18) CS(=O)(=O)NCCCCNc1ccc(C(F)(F)F)cc1[N+](=O)[O-]
    -28	-30	-4.9	x	-6	-10%	7.2	0.67	4.3
(19) CC(C)COC(=O)N1CCN(S(=O)(=O)c2ccc3c(c2)CCC3)CC1
    17	9	1.4	i	x	-16%	0.1	0.67	-1.3
(20) CC(C)Oc1ccc(N2CC(C(=O)Nc3ccccc3C(=O)NC3CC3)CC2=O)cc1 (stereo not drawn)
    12	6	0.0	i	2	-13%	-0.9	0.66	-1.0
(21) Cc1ccc(S(=O)(=O)N[C@@H](Cc2ccccc2)C(=O)N2CCC(C(=O)N[C@H](C(=O)O)C(C)O)CC2)cc1 (stereo partly drawn)
    17	18	-0.1	i	-12	1%	4.3	0.66	-2.2
(22) COCCNC(=O)C[C@@H]1C[C@@H]2c3cc(NC(=O)c4cccnc4)ccc3O[C@@H]2[C@H](CO)O1
    4	12	1.1	i	x	x	x	x	-2.0
(23) Cc1nn(C)c(Cl)c1/C=N/OC(=O)c1ccccc1
    2	3	2.3	i	6	-2%	2.0	x	0.3
(24) C=CCNc1nc(N2CCOCC2)nc(N2CCOCC2)n1
    x	x	x	x	-2	-1%	1.6	0.65	x
(25) Cn1c(COc2ccccc2)nnc1SCC(=O)c1cccc([N+](=O)[O-])c1
    0	-1	-6.1	i	35	11%	0.5	0.7	-0.3
(26) COc1ccc(CN(C)C(=O)c2cnc(C)cn2)c(OC)c1OC
    18	9	-2.1	i	5	5%	1.1	0.69	2.6
(27) COc1ccccc1CNC(=O)C1CC2Cn3c(nc4cc(Cl)c(Cl)cc43)C2N1C (stereo not drawn)
    -22	-24	-8.3	i	3	x	1.1	0.71	-6.5
(28) Cc1ccccc1S(=O)(=O)N1CCCCN2[C@H](CO)[C@@H](c3ccc(C#CCN(C)C)cc3)[C@@H]2C1
    0	-4	1.2	i	x	x	x	x	6.3
(29) CCCCC[C@@H](/C=C/C1C(=O)C=C[C@H]1C/C=C\CCCC(=O)O)OC(C)=O (stereo partly drawn)
    2	2	19	i	x	17%	0.2	0.71	0.8
(30) COc1ccc(-c2nsc3c(N4CCCCC4C)ncnc23)cc1 (stereo not drawn)
    -14	-17	-1.3	i	x	-14%	-1.8	0.67	-6.0

Following part.
Every second line gives: Ecoli rRNA inh	Ecoli rRNA inh OD600	Ecoli rRNA inh RFP	FGF22 binding	ALR inh	Vif A3G	HNF4A DNA FP	Ecoli growth	AF4-AF9 inh
(31) CC(=O)O/N=C(\N)c1ccc(-c2csnn2)cc1
    6	7	-3.3	i	x	x	11	x	-0.4
(32) CC(C(=O)Nc1ccc(C#N)cc1)N(C)CC(=O)Nc1ccccc1Br (stereo not drawn)
    -3	4	0.0	i	-6	14%	2.0	0.69	-17
(33) C=CCOc1ccc2c(c1)c(=O)cc(C(=O)O)n2CC
    x	x	x	i	-5	4%	2.0	0.65	-0.1
(34) Cc1cc(C(=O)Cn2nc(C(=O)O)c3ccccc3c2=O)c(C)n1-c1ccc(F)cc1
    9	-2	-4.1	i	x	x	-1.1	0.66	10
(35) Cc1nn(-c2ccccc2)c(C)c1/C=N/n1c(-c2ccc(Cl)cc2)n[nH]c1=S
    x	x	x	i	-1	x	1.6	x	-3.3
(36) COCCN(CC1CCCN(C2Cc3ccccc3C2)C1)C(=O)CCSC (stereo not drawn)
    20	8	1.5	i	-8	x	1.6	0.67	-27
(37) COc1ccc2c3c([nH]c2c1)[C@@H](CO)N(CC1CC1)CC31CN(C(=O)Nc2cccc(F)c2)C1
    -3	-2	4.4	i	x	x	x	x	-0.8
(38) CO[C@H]1CN(C)C(=O)c2cc(NC(=O)CC(F)(F)F)ccc2OC[C@@H](C)N(C(=O)C2CCOCC2)C[C@@H]1C
    2	1	0.9	i	x	x	x	x	-16
(39) CCOC(=O)c1[nH]cnc1C(=O)Nc1cccc(OC)c1
    15	2	1.2	i	-1	0%	0.9	0.64	3.0
(40) CN(C(=O)c1ccc(NC(=O)Cc2cccc(NC(=O)C3CCCN(C(=O)C4CC4)C3)c2)cc1)C1CCCC1 (stereo not drawn)
    -2	3	1.1	i	1	x	0.2	0.7	-0.4
(41) COc1ccc(CCn2c(SCC(=O)Nc3cc(C)on3)nc3ccccc3c2=O)cc1OC
    x	x	x	x	-13	7%	4.7	0.66	x
(42) CCOc1ccc(-n2c(C)cc(/C=N/N(C)C)c2C)cc1
    -2	1	0.1	i	0	-4%	5.9	x	16
(43) N#C/C(=C(/O)Cc1ccccc1)P(=O)(c1ccccc1)c1ccccc1
    -5	3	5.0	i	x	2%	-0.6	0.69	x
(44) O=C(/C=C/c1cc[n+](CC(=O)c2ccc3cccc4c3c2CC4)cc1)c1ccc2cccc3c2c1CC3
    x	x	x	x	x	-3%	178	0.73	x
(45) O=c1c2cccnc2n(-c2ccccc2)n1Cc1c(Cl)cccc1Cl
    27	19	0.9	i	-1	-1%	2.0	0.73	-2.0

(next part)
Every second line gives: Ecoli rRNA inh	Ecoli rRNA inh OD600	Ecoli rRNA inh RFP	FGF22 binding	ALR inh	Vif A3G	HNF4A DNA FP	Ecoli growth	AF4-AF9 inh
(46) Nc1nc(C2CC(=O)OC23CCCCC3)cs1 (stereo not drawn)
    x	x	x	x	3	3%	5.5	0.68	x
(47) COc1cc(C(C(=O)NC2CCCCC2)N(C(=O)Cc2c[nH]c3ccccc23)c2ccccc2C)cc(OC)c1OC (stereo not drawn)
    x	x	x	x	1	14%	3.4	x	x
(48) Cc1csc(=O)n1CC(=O)OCC(=O)Nc1cc(S(=O)(=O)N2CCOCC2)ccc1Cl
    1	11	0.5	i	-9	-6%	-2.3	0.69	-1.6
(49) COc1cc(C2C(C(=O)Nc3ccccc3OC)=C(C)Nc3ncnn32)ccc1O (stereo not drawn)
    5	7	1.1	i	22	-2%	2.8	0.71	-8.2
(50) O=C(CSc1nnc(-c2ccco2)o1)NC1CCCCC1
    x	x	x	x	0	4%	2.7	0.66	x
(51) O=C(OCc1ccc([N+](=O)[O-])cc1)c1cc2ccccc2oc1=O
    7	10	-1.5	i	0	x	0.6	0.67	0.6
(52) C[C@H](NC(=O)C[C@H]1CC[C@@H](NC(=O)c2cccnc2)[C@@H](CO)O1)c1ccccc1
    2	3	2.3	i	x	x	x	x	-1.2
(53) Cc1ccc(NC(=O)CN(C)C(=O)c2ccc(Sc3nncn3C)c([N+](=O)[O-])c2)cc1
    22	16	-2.5	i	-10	-7%	-0.8	0.66	-0.6
(54) CN(CC(=O)C(C(N)=O)c1ccccc1)c1ccccc1 (stereo not drawn)
    -6	9	2.7	i	x	3%	-1.5	x	0.3
(55) COCCCN1C2=C(C(=O)CC(C)(C)C2)C(c2ccc(OC)c(OC)c2)C2=C1CC(C)(C)CC2=O
    9	10	4.5	i	-7	x	-4.1	0.69	0.7
(56) CCOc1ccc(NC(=O)CSc2nnc(-c3ccoc3C)n2CC2CCCO2)cc1 (stereo not drawn)
    x	x	x	x	-10	3%	-0.2	0.7	x

A second format for some results above:
52	C[C@H](NC(=O)C[C@H]1CC[C@@H](NC(=O)c2cccnc2)[C@@H](CO)O1)c1ccccc1
  Ecoli rRNA inh = 2
  Ecoli rRNA inh OD600 = 3
  Ecoli rRNA inh RFP = 2.3
  FGF22 binding = i
  ALR inh = x
  Vif A3G = x
  HNF4A DNA FP = x
  Ecoli growth = x
  AF4-AF9 inh = -1.2

50	O=C(CSc1nnc(-c2ccco2)o1)NC1CCCCC1
  Ecoli rRNA inh = x
  Ecoli rRNA inh OD600 = x
  Ecoli rRNA inh RFP = x
  FGF22 binding = x
  ALR inh = 0
  Vif A3G = 4%
  HNF4A DNA FP = 2.7
  Ecoli growth = 0.66
  AF4-AF9 inh = x

47	COc1cc(C(C(=O)NC2CCCCC2)N(C(=O)Cc2c[nH]c3ccccc23)c2ccccc2C)cc(OC)c1OC (stereo not drawn)
  Ecoli rRNA inh = x
  Ecoli rRNA inh OD600 = x
  Ecoli rRNA inh RFP = x
  FGF22 binding = x
  ALR inh = 1
  Vif A3G = 14%
  HNF4A DNA FP = 3.4
  Ecoli growth = x
  AF4-AF9 inh = x

48	Cc1csc(=O)n1CC(=O)OCC(=O)Nc1cc(S(=O)(=O)N2CCOCC2)ccc1Cl
  Ecoli rRNA inh = 1
  Ecoli rRNA inh OD600 = 11
  Ecoli rRNA inh RFP = 0.5
  FGF22 binding = i
  ALR inh = -9
  Vif A3G = -6%
  HNF4A DNA FP = -2.3
  Ecoli growth = 0.69
  AF4-AF9 inh = -1.6

Screening data (PubChem)
